TrxR1 substrate: qHTS Assay for Substrates of Mammalian Selenoprotein Thioredoxin Reductase 1 (TrxR1): qHTS | purified TrxR1 substrate turnover, NADPH consumption readout | Potency, µM (titrated, usually from 114 µM), for the others: top-dose activity change, negative = substrate turnover | 390,000 tested, 0.01% active | AID 588456, 2011; further: potency means the concentration at half of the fitted maximal effect; nearly all actives have a fitted effect of over 50% in size
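Rat TrxR1, dispensed at 90 nM, was prereduced with 400 uM NADPH (final) for 5 min at ~22 deg C, then incubated with compound 15 min before 400 uM selenite. A first-read NADPH fluorescence drop versus no-compound background flagged substrates.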
PI4K2A block: qHTS for small molecular inhibitors of PI4K2A; purified PI4K2A, ADP-Glo luminescence, 1 h; stronger effect = lower value; AID 1346378, 2018; Phosphatidylinositol 4-kinase type 2-alpha (Homo sapiens), Q9BTU6; 420,000 tested, 0.13% active; activity change, negative = inhibition, % at 76.9 µM; in the data active means activity change below about -50%; inconclusive means mostly about -30% to -49%;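 further: -100% = wells without enzyme as full effect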
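In this quantitative HTS, ADP production by PI4K2A was quantified luminescently after 1 h at ambient temperature; 100 microM adenosine served as plate-quality control.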
Pin1 inhibitor: qHTS Assay to Find Inhibitors of Pin1. Potency, µM (series often up to 115 µM), without a hit: at the top dose activity, negative = inhibition, usual class: inhibitors. Pin1 FP peptide displacement, HiFluor488, 10 min. 390,000 tested, 0.009% active. Peptidyl-prolyl cis-trans isomerase NIMA-interacting 1 (Homo sapiens), Q13526; active means well fitted inhibition curve with a large enough effect in the polarisation, with a control signal flat, not every such curve was filed as active; inconclusive means small, poorly fitted or top-dose-only effect, or effect the other way, or a change in a side signal; inactive means no such curve, though single readings can be large or run the other way; the % refers to the polarisation; further: potency means the concentration at half of the fitted maximal effect
Target sequence (Q13526 whole entry, looked up): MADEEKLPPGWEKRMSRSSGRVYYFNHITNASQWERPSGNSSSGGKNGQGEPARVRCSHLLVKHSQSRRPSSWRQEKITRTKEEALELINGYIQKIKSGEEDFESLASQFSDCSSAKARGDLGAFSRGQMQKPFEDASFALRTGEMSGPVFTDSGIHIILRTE
rTrxR1 inhibitor: qHTS Assay for Inhibitors of Mammalian Selenoprotein Thioredoxin Reductase 1 (TrxR1): qHTS; Thioredoxin reductase 1, cytoplasmic (Rattus norvegicus), O89049; recombinant rTrxR1, NADPH fluorescence consumption, selenite substrate; Potency, µM (highest dose often 114 µM), inactives show top-dose activity change, negative = inhibition, actives largely listed as inhibitors; 390,000 tested, 1% active; AID 588453, 2011; further: potency means the concentration at half of the fitted maximal effect; nearly all actives have a fitted effect of over 65% in size
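Rat TrxR1 (90 nM in the dispensed reagent) was pre-reduced with 400 uM NADPH for 5 min at room temperature, then incubated with compound for 15 min. After 400 uM selenite was added, NADPH fluorescence (Ex 340/Em 450 nm) was followed for 8 min.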
GLS inh: qHTS for Inhibitors of Glutaminase (GLS); Glutaminase kidney isoform, mitochondrial (Homo sapiens), O94925; GLS enzymatic activity, qHTS titration; Potency, µM (top dose mostly 45.5 µM), inactives show at the top dose activity change, negative = inhibition, hits mostly inhibitors; 410,000 tested, 0.21% active; further: potency means the concentration at half of the fitted maximal effect
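Coupled fluorescence readout: glutamate oxidase/HRP/Amplex Red detect glutamate formed by hKGA from L-glutamine (1 mM solution added). Buffer 45 mM KH2PO4 pH 8.2, 0.02% Tween-20; reads at t0 and 30 min RT.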
IDH1 R132H inh: qHTS for Inhibitors of mutant isocitrate dehydrogenase 1 (IDH1): qHTS; AID 602179, 2012; IDH1-R132H enzyme, NADPH consumption, diaphorase/resazurin fluorescence; Potency, µM (top dose mostly 76.6 µM), without a hit: top-dose activity change, negative = inhibition, hits mostly inhibitors; 390,000 tested, 0.093% active; Isocitrate dehydrogenase [NADP] cytoplasmic (Homo sapiens), O75874; further: potency means the concentration at half of the fitted maximal effect; nearly all actives have a fitted effect of over 65% in size
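IDH1-R132H (0.5 ug/mL dispensed) in pH 7.5 Tris buffer was preincubated 30 min with compound, then given a substrate mix of 0.016 mM NADPH and 2 mM alpha-KG for 80 min at room temperature; remaining NADPH was read by diaphorase/resazurin fluorescence.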
PGK inhibitor: qHTS Assay to Find Inhibitors of Phosphoglycerate Kinase; 380,000 tested, 0.043% active; Phosphoglycerate kinase, glycosomal (Trypanosoma brucei brucei), P07378; AID 602233, 2012; PGK/GAPDH coupled, Kinase-Glo luminescence, 60 min; Potency, µM (top dose mostly 57.5 µM), inactives show at the top dose activity change, negative = inhibition, actives largely listed as inhibitors; further: potency means the concentration at half of the fitted maximal effect; nearly all actives have a fitted effect of over 60% in size
Target sequence (P07378 whole entry, looked up): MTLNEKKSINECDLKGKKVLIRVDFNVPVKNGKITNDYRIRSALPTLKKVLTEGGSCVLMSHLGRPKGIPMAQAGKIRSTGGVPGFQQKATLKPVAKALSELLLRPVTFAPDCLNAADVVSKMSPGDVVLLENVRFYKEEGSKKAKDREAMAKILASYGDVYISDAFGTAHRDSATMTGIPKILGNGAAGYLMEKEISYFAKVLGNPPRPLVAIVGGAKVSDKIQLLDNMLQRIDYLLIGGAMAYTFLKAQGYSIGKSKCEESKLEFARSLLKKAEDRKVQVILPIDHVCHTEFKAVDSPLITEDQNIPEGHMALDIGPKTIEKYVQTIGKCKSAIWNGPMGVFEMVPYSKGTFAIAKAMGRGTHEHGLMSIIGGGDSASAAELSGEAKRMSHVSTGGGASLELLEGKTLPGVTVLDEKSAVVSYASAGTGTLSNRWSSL
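Luminescent ATP detection (Kinase-Glo Plus) follows a 60-minute room-temperature incubation, with wells lacking PGK as controls. Buffer: 100 mM TEA (pH 7.6), 5 mM MgCl2, 0.01% Tween-20. Coupling enzyme GAPDH (100 nM final) supplies unstable 1,3-BPG in-well.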
* marks the source's active call; other numbers are inactive results; i = inactive; u = inconclusive; [ ] = another dose, or the depositor's remark. Unless noted, the call rests on the fitted dose curve; in most records, active means well fitted curve in the direction sought with a large enough effect; inconclusive means small, poorly fitted or top-dose-only effect, or another doubt; inactive means no such curve, though single readings can be large; an effect the other way counts as inactive or inconclusive. Unless noted, on the % scale 0 is the no-effect control and ±100 the full control effect. These rows are one share of the data. The share of hits here may be higher or lower than overall.

| No. | structure | PGK inhibitor | IDH1 R132H inh | GLS inh | TrxR1 substrate | rTrxR1 inhibitor | PI4K2A block | Pin1 inhibitor |
| --- | --- | --- | --- | --- | --- | --- | --- | --- |
| 1 | CCOC(=O)c1cc(C#N)c(N2CCN(c3ccccn3)CC2)nc1-c1ccccc1 | 4% | -4% | 5% | 11% | 24% | 1 | 18% |
| 2 | O=C(O)COCC(=O)Nc1ccc2c(c1)ncn2CCc1ccccc1 | -1% | 20% | 8% | 14%[57.1 µM] | 19% | 3 | -3% |
| 3 | N#CC(c1cccc(C(F)(F)F)c1)(c1ncc(C(F)(F)F)cc1Cl)N1CCOCC1 (stereo not drawn) | i | 2% | 3% | -4% | 16% | 6 | 0% |
| 4 | O=C(NN1CC(C(=O)OCc2ccccc2F)CC1=O)c1ccccc1 (stereo not drawn) | 9% | -2% | -1% | -2% | 12% | 3 | -1% |
| 5 | O=C1Nc2cc(C(=O)N3CCN(c4ccccn4)CC3)ccc2S/C1=C\c1ccccc1 | -8% | -7% | 0% | 9%[57.1 µM] | 38%[activator][57.1 µM] | 9 | 62%[activator] |
| 6 | Nc1ncc([N+](=O)[O-])cc1S(=O)(=O)c1ccccc1 | -8% | 12% | -6% | -1% | 16% | 6 | 0% |
| 7 | CC(C)N1C(=O)CCN(C=O)c2ccccc21 | -15% | 9% | 2% | 1% | 8% | -2 | 2% |
| 8 | C=C1CCN([C@@H](CC(C)C)C(=O)N2CCOCC2)S(=O)(=O)c2ccccc21 | 2% | -10% | 1% | 6%[57.1 µM] | 10%[57.1 µM] | -1 | -9% |
| 9 | O=S(=O)(Nc1cccc(C(F)(F)F)c1)c1cnc[nH]1 | -2% | 12% | -2% | 13%[57.1 µM] | 3%[11.4 µM] | 6 | 3% |
| 10 | O=C1CCCC(=O)C1C(c1ccc(Cl)cc1)C1C(=O)CCCC1=O | 0% | 13% | -4% | -1% | u | 1 | 16% |
| 11 | CCOc1ccc(/C=C/c2nc(C#N)c(N3CCCCC3)o2)cc1 | -7% | 3% | 4% | 78%[activator] | 38%[activator] | -2 | 9% |
| 12 | COc1ccccc1NC(=S)N1CCc2cc(OC)c(OC)cc2C1 | -6% | -8% | 11% | -11% | -31% | 5 | 1% |
| 13 | CCC(Cn1nnc2ccccc2c1=O)NC(=O)Nc1cccc(C)c1C (stereo not drawn) | -3% | 9% | -6% | 11% | 4% | 2 | 57%[activator] |
| 14 | CC(OC(=O)Cn1cc(C(F)(F)F)ccc1=O)C(=O)NC(C)c1ccc(Cl)cc1Cl (stereo not drawn) | i | 4% | -7% | -8% | 1% | -4 | 1% |
| 15 | O=C(O)c1ccc(S(=O)(=O)N2CCSCC2)cc1 | 0% | -9% | 5% | 0% | 11% | -20 | -5% |

Molecules above containing a CF3 group:
| No. | structure | PGK inhibitor | IDH1 R132H inh | GLS inh | TrxR1 substrate | rTrxR1 inhibitor | PI4K2A block | Pin1 inhibitor |
| --- | --- | --- | --- | --- | --- | --- | --- | --- |
| 3 | N#CC(c1cccc(C(F)(F)F)c1)(c1ncc(C(F)(F)F)cc1Cl)N1CCOCC1 (stereo not drawn) | i | 2% | 3% | -4% | 16% | 6 | 0% |
| 9 | O=S(=O)(Nc1cccc(C(F)(F)F)c1)c1cnc[nH]1 | -2% | 12% | -2% | 13%[57.1 µM] | 3%[11.4 µM] | 6 | 3% |
| 14 | CC(OC(=O)Cn1cc(C(F)(F)F)ccc1=O)C(=O)NC(C)c1ccc(Cl)cc1Cl (stereo not drawn) | i | 4% | -7% | -8% | 1% | -4 | 1% |

Three compounds drawn at random from the list so far, as already listed:
| No. | structure | PGK inhibitor | IDH1 R132H inh | GLS inh | TrxR1 substrate | rTrxR1 inhibitor | PI4K2A block | Pin1 inhibitor |
| --- | --- | --- | --- | --- | --- | --- | --- | --- |
| 10 | O=C1CCCC(=O)C1C(c1ccc(Cl)cc1)C1C(=O)CCCC1=O | 0% | 13% | -4% | -1% | u | 1 | 16% |
| 14 | CC(OC(=O)Cn1cc(C(F)(F)F)ccc1=O)C(=O)NC(C)c1ccc(Cl)cc1Cl (stereo not drawn) | i | 4% | -7% | -8% | 1% | -4 | 1% |
| 8 | C=C1CCN([C@@H](CC(C)C)C(=O)N2CCOCC2)S(=O)(=O)c2ccccc21 | 2% | -10% | 1% | 6%[57.1 µM] | 10%[57.1 µM] | -1 | -9% |

A portion from further up, for reference:
| No. | structure | PGK inhibitor | IDH1 R132H inh | GLS inh | TrxR1 substrate | rTrxR1 inhibitor | PI4K2A block | Pin1 inhibitor |
| --- | --- | --- | --- | --- | --- | --- | --- | --- |
| 11 | CCOc1ccc(/C=C/c2nc(C#N)c(N3CCCCC3)o2)cc1 | -7% | 3% | 4% | 78%[activator] | 38%[activator] | -2 | 9% |
| 12 | COc1ccccc1NC(=S)N1CCc2cc(OC)c(OC)cc2C1 | -6% | -8% | 11% | -11% | -31% | 5 | 1% |

Additional records
| No. | structure | PGK inhibitor | IDH1 R132H inh | GLS inh | TrxR1 substrate | rTrxR1 inhibitor | PI4K2A block | Pin1 inhibitor |
| --- | --- | --- | --- | --- | --- | --- | --- | --- |
| 16 | Cc1ccccc1CNC(=O)Cn1cnc(S(=O)(=O)N2CCCC2)c1 | -11% | 0% | 2% | -5% | -23% | -2 | -1% |
| 17 | O=C1NC2(CCC3(CC2)OCCO3)NN1c1ccc(Cl)cc1 | -4% | -1% | 36%[activator] | 9%[57.1 µM] | 20%[57.1 µM] | 1 | -3% |
| 18 | Cc1ccc(CNC(=O)Cn2cnc(S(=O)(=O)N3CCCCC3)c2)o1 | -10% | -6% | -3% | 3% | 5% | -3 | 0% |
| 19 | O=C(NN=Cc1ccccc1OC(F)F)c1ccc(NS(=O)(=O)c2cccs2)cc1 | -4% | 0% | 15% | -10% | -5% | -2 | 21% |
| 20 | COC(=O)C1=NN(c2ccc(C)cc2)C2C(=O)N(c3ccccc3OC)C(=O)C12 (stereo not drawn) | -2% | 0% | -10% | 3% | -3%[57.1 µM] | 0 | -4% |
| 21 | COc1ccccc1NC(=O)C1=C(C)Nc2nnnn2C1c1ccncc1 (stereo not drawn) | 4% | -1% | 12% | -2% | -16% | 5 | 8% |
| 22 | O=C(NN=Cc1ccc(F)c(F)c1)c1ccc(NS(=O)(=O)c2cccs2)cc1 | 2% | 2% | 9% | 6%[57.1 µM] | -3%[11.4 µM] | 7 | -5% |
| 23 | Cc1nn2c(-c3ccco3)ccnc2c1-c1ccc(Cl)cc1 | -5% | 5% | -5% | 6%[11.4 µM] | 23%[11.4 µM] | -4 | 13% |
| 24 | C/C(=N/NC(=O)c1cccc(C)c1)c1c(O)cc(C)oc1=O | 6% | 2% | 7% | -1%[57.1 µM] | -17%[57.1 µM] | -3 | -2% |
| 25 | C/C(=N/OCO/N=C(\C)c1ccccc1)c1ccccc1 | -1% | 1% | 8% | -3% | 16% | -1 | 0% |

An excerpt of these results, with the structure last.
no.	PGK inhibitor	IDH1 R132H inh	GLS inh	TrxR1 substrate	rTrxR1 inhibitor	PI4K2A block	Pin1 inhibitor	canonical_smiles
23	-5%	5%	-5%	6%[11.4 µM]	23%[11.4 µM]	-4	13%	Cc1nn2c(-c3ccco3)ccnc2c1-c1ccc(Cl)cc1
24	6%	2%	7%	-1%[57.1 µM]	-17%[57.1 µM]	-3	-2%	C/C(=N/NC(=O)c1cccc(C)c1)c1c(O)cc(C)oc1=O
